# Screens as filed in PubChem BioAssay.
# GIRK2 act – opens human GIRK2 potassium channels. 63,000 tested, 0.05% active. P48051. HEK293-GIRK2 thallium flux, Thallos fluorescence. calls only for hits at 25 µM;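 active = among the strongest 0.2% of first-round signals and kept after retests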;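 also: first round at about 10 µM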
# Target sequence (P48051 whole entry, looked up): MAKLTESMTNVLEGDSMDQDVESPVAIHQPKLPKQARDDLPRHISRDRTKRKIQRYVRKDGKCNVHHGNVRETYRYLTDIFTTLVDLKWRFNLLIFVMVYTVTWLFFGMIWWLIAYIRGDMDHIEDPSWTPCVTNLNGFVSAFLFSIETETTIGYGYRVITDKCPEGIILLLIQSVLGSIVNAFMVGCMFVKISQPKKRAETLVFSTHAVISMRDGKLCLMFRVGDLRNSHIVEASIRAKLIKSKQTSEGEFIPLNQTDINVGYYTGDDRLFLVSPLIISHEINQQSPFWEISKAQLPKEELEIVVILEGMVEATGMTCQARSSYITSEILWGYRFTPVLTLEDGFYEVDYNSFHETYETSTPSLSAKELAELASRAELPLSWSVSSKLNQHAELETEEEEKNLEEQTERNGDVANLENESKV
# Calls only; i = inactive. The list is partial (hit frequency here may not be typical).
GIRK2 act,canonical_smiles
i,COc1ccccc1CNC(=O)c1ccc(Cn2c(C)nc3ccccc32)o1
i,O=C(NC1CC(=O)N(C2CC2)C1)c1c(F)cccc1Cl (stereo not given)
i,COCCn1c(=O)c2c(nc3n(-c4cc(C)cc(C)c4)c(-c4ccccc4)cn23)n(C)c1=O
i,COc1ccc(OC)c(-c2csc(-c3nnn(-c4ccc(F)cc4)c3C)n2)c1
i,O=C(CCSc1ccccc1)NCC1CCN(Cc2ccccc2)CC1
i,Cn1c(SCC(=O)Nc2ccccc2Cl)nc2cc(-c3ccccc3)sc2c1=O
i,Cc1noc(C)c1S(=O)(=O)N1CC(c2nc(Cc3cccs3)no2)C1
i,CC1(CO)CCCC2(C)C1C(OC(=O)c1ccccc1)CC1C(=O)OCC12O (stereo not given)
i,CCCn1c(=O)c2c(nc3n(-c4ccc(C(=O)OCC)cc4)c(C)c(C)n23)n(C)c1=O
i,O=c1c2ccccc2nc(SCc2nc(-c3ccc(Cl)cc3)no2)n1Cc1cccs1
i,Cc1ccc(S(=O)(=O)Nc2ccc3c(c2)N(S(=O)(=O)c2ccccc2)CCC3)cc1
i,CCOc1ccc(C2C(C(=O)c3ccc(C)o3)=C(O)C(=O)N2c2cc(C)on2)cc1 (stereo not given)
i,CCOC(=O)Cn1c(=O)c2c(nc3n(-c4cc(OC)ccc4OC)c(C)c(C)n23)n(C)c1=O
i,O=C(NCc1nc2ccccc2[nH]1)c1cccc([N+](=O)[O-])c1
i,Cn1cc(C2=C(c3cn(CCSC(=N)N)c4ccccc34)C(=O)NC2=O)c2ccccc21
i,COC(=O)C(C)Oc1ccc2c(=O)c(-c3ccc(Br)cc3)c(C)oc2c1 (stereo not given)
i,COc1ccc(-c2cc3c(=O)n(CC(=O)Nc4ccccc4C)ccn3n2)cc1OC
i,Cc1nn(-c2ccc(C(=O)NCc3cccc(Cl)c3)cn2)c(C)c1C
i,CCCN1C(=O)COc2ccc(-c3csc(NC(=O)c4cccc(OC)c4)n3)cc21
i,CC(Oc1ccccc1)C(=O)N1CCC(Cn2ccnc2-c2ccccc2)CC1 (stereo not given)
i,COc1ccccc1OCCNc1ncc2c(=O)n(-c3ccccc3F)c(=O)[nH]c2n1
i,Cc1cc(C)n(-c2cc(SCC(=O)N3CCCC3)ncn2)n1
i,O=C1C=CC(=O)N1c1ccccc1F
i,O=C(CCCn1c(=S)[nH]c2cc3c(cc2c1=O)OCO3)NCc1ccccc1
i,C#CCCNC(=O)CSc1c[nH]c2ccccc12
i,CCCc1nnsc1C(=O)Nc1nc(-c2ccccc2)c(C(C)=O)s1
i,CCN(C(=O)c1cc2c(=O)n3ccccc3nc2n1CCCOC)C1CCCCC1
i,Cc1ccc(S(=O)(=O)N2CCCOC2CNC(=O)C(=O)NCCN2CCOCC2)cc1 (stereo not given)
i,O=C(NCC(O)c1ccoc1)c1ccccc1Oc1ccccc1 (stereo not given)
i,COc1cccc(CN2CN(c3ccc(C)cc3)c3ncccc3S2(=O)=O)c1

# Structures above containing a furan ring, fused or not, in the order listed:
GIRK2 act,canonical_smiles
i,COc1ccccc1CNC(=O)c1ccc(Cn2c(C)nc3ccccc32)o1
i,CCOc1ccc(C2C(C(=O)c3ccc(C)o3)=C(O)C(=O)N2c2cc(C)on2)cc1 (stereo not given)
i,O=C(NCC(O)c1ccoc1)c1ccccc1Oc1ccccc1 (stereo not given)

# Further compounds
GIRK2 act,canonical_smiles
i,CCCS(=O)(=O)NCCn1ncc2c(N3CCCC3)ncnc21
i,CCCS(=O)(=O)N1CCCc2ccc(NS(=O)(=O)c3ccc(OC)c(F)c3)cc21
i,CCc1ccc(-n2c(-c3ccccc3)cn3c4c(=O)n(CC(N)=O)c(=O)n(C)c4nc23)cc1
i,COc1ccccc1C1NC(=O)NC(C)=C1C(=O)Nc1ccc(C)c(C)c1 (stereo not given)
i,Cc1cc(=O)[nH]c(-n2nc(-c3cccs3)cc2NC(=O)c2ccc(S(=O)(=O)N(C)C)cc2)n1
i,COc1ccc(-c2cc(N3CCN(C(=O)c4cncc(Br)c4)CC3)ncn2)cc1
i,COC(=O)c1ccc2c(c1)sc(=NC(=O)c1cc(C)no1)n2CCSC
i,CCOc1ccc(C2c3c(oc4ccccc4c3=O)C(=O)N2CCCN(C)C)cc1OC (stereo not given)
i,CCOC(=O)CCC(=O)Nc1ccc(S(=O)(=O)Nc2ccc(F)cc2)cc1
i,O=C(Nc1nc2c(s1)CN(S(=O)(=O)CCN1C(=O)CCCC1=O)CC2)C1CC1
i,O=C(Nc1cccc(S(=O)(=O)N2CCCC2)c1)c1cc2c(=O)n3ccccc3nc2s1
i,COc1ccc2nc(N(CCn3cccn3)C(=O)c3cc4ccccc4o3)sc2c1
i,COCCNC(=O)c1[nH]c2ccccc2c1NC(=O)c1cccc(C)c1
i,Cc1ccccc1Cn1c(=O)c2c(nc3n(CCO)c(C)c(C)n23)n(C)c1=O
i,CCOC(=O)c1cnn2ccc(NC(=O)c3ccc(=O)n(C)n3)cc12
i,Cc1ccccc1NC(=O)NCC(C)(O)c1ccco1 (stereo not given)
i,COc1ccccc1CNC(=O)Cn1cnc2c(-c3ccc(F)cc3)cn(C)c2c1=O
i,O=[N+]([O-])c1ccccc1S(=O)(=O)NCCOc1ccc2c(c1)OCO2
i,COC(=O)c1ccc(CN2CCC(COCc3ccc(F)cc3)CC2)cc1
i,CCOc1ccc(CC(=O)Nc2cc(N3CCCCC3)ncn2)cc1
i,CCS(=O)(=O)c1ccc(OC)c(Nc2ncc(-c3cccc(-c4ccccc4F)c3)o2)c1
i,Cc1nc2ccccc2n1CC1CCN(C(=O)COc2ccccc2F)CC1
i,COc1ccc(Nc2nc(-c3nnn(-c4cc(F)ccc4F)c3C)ns2)cc1
i,CC1=C(C(=O)OC(C)C)C(c2cc(C(C)(C)C)c(O)c(C(C)(C)C)c2)NC(=O)N1 (stereo not given)
i,CN(C)S(=O)(=O)N1CCC(CSc2nccn2C)CC1
i,COc1ccc(Cl)cc1C(=O)Nc1cc(-c2cccs2)nn1-c1nc(C)cc(=O)[nH]1
i,Cc1cc(C)cc(Oc2nccn3c(=O)n(CC(=O)Nc4c(C)cc(C)cc4C)nc23)c1
i,CCCc1cc(NC(C)CC)n2nc3nc(C)cc(C)c3c2n1 (stereo not given)
i,COc1ccc(CNC(=O)C(=O)NCCC2CCCCN2S(=O)(=O)c2ccc(F)cc2)cc1 (stereo not given)
i,COC(=O)C1=C(CS(=O)(=O)c2cccc(Cl)c2)NC(=O)NC1c1ccc(O)c(OC)c1 (stereo not given)
i,COC(CNC(=O)c1nnn(-c2ccc(C)cc2)n1)OC
i,COc1ccc(-c2n[nH]n3c2nc(=O)c2ccc(C(=O)NCCc4ccc(OC)c(OC)c4)cc23)cc1
i,O=C(c1csc(-c2cnccn2)n1)N1CCN(C/C=C/c2ccccc2)CC1
i,COc1cccc(-c2noc(CN3C(=O)COc4ccccc43)n2)c1
i,O=C(NCCc1ccncc1)C1COCC(=O)N1Cc1ccccc1 (stereo not given)
i,Cc1ccc(Oc2nccn3c(=O)n(CC(=O)NCc4ccccc4)nc23)cc1
i,O=C(Cn1nc2c(Oc3ccccc3)nccn2c1=O)N1CCN(c2ccccc2F)CC1
i,CN(C)CCCNc1oc(-c2ccc(S(=O)(=O)N3CCOCC3)cc2)nc1C#N
i,COc1ccc(-c2nc(CSc3nc(-c4cccnc4)cc(=O)[nH]3)c(C)o2)cc1
i,COc1ccc(S(=O)(=O)N2CCC(c3nc(-c4cccc(OC)c4)no3)CC2)cc1
i,Cc1nc(C)c(-c2nnc(NC(=O)CSc3ccc(F)cc3)o2)s1
i,Cc1ccc(-c2noc(-c3cccn(CC(=O)NCc4ccccc4Cl)c3=O)n2)cc1
i,Cc1ccccc1/C=C\C(=O)c1cccc(NS(C)(=O)=O)c1
i,O=S(=O)(NCC(O)c1ccoc1)c1ccc(Cl)s1 (stereo not given)
i,Cc1cccc2c(C(=O)O)cc(-c3ccncc3)nc12
i,CSCCC(C)(O)CNC(=O)NCc1ccccc1 (stereo not given)
i,CC(C)(Oc1ccc(Cl)cc1)C(=O)N1CCN(C(=O)C2CC2c2cccs2)CC1 (stereo not given)
i,CC(=O)c1cccc(NC(=O)c2coc(NC(=O)c3cc(C)oc3C)n2)c1
i,Cc1ccc(NC(=O)C2C(C)Nc3ncnn3C2c2ccccc2)c(C)c1 (stereo not given)
i,CSc1ccccc1NC(=O)C(=O)NCc1ccc(C(O)c2cccs2)s1 (stereo not given)
i,Cc1noc(CNC(=O)NCc2cccc3ccccc23)n1
i,CSc1ncc(Cl)c(C(=O)Nc2cccnc2)n1
i,CCN1CCN(C(=O)c2nc(SC)ncc2Cl)CC1
i,O=C(c1csc2nc(-c3ccc(F)cc3)cn12)N1CCN(c2ccccc2F)CC1
i,CCOc1ccccc1NC(=O)Cn1ccn2nc(-c3ccc(C)cc3)cc2c1=O
i,O=C(NCCc1c[nH]c2ccccc12)c1ccc2c(=O)n(Cc3ccccc3Cl)c(=S)[nH]c2c1
i,CCCCNC(=O)c1c(C)c2c(=O)n(CC(=O)Nc3ccc(Br)cc3)ncn2c1C
i,CCOC(=O)CNC(=O)CSc1nnc(C(C)C)c2cnn(-c3ccc(F)cc3)c12
i,Cc1nc(SCC(=O)Nc2ccc(Cl)c(Cl)c2)cc(-c2ccccn2)n1
i,COCCCN1CCc2nc(SCc3nc(-c4ccc(OC)cc4)oc3C)[nH]c(=O)c2C1

# (further entries)
GIRK2 act,canonical_smiles
i,O=C(NCc1ccccc1)Nc1ccc2c(c1)CCCN2C(=O)c1cccs1
i,CC(C)c1nnc(SCC(=O)N2CCN(c3ccccc3)CC2)c2c1cnn2-c1ccccc1
i,COc1ccc(N/C=C(\C#N)c2nc(-c3ccco3)cs2)cc1OC
i,CCOc1ccc(NC(=O)COc2cc(C)nc(N3CCc4ccccc4C3)n2)cc1
i,Cc1ccc(C)c(-c2cc3c(=O)n(Cc4nc(-c5ccc6c(c5)OCO6)no4)ncn3n2)c1
i,CS(=O)(=O)NCC1CCC(C(=O)NCCc2cccs2)CC1 (stereo not given)
i,CCc1ccc(-c2noc(Cn3c(=O)n(Cc4ccccc4)c(=O)c4sccc43)n2)cc1
i,COc1ccccc1C1(CNC(=O)/C=C/c2cccs2)CCOCC1
i,O=C(NCc1cccs1)N1CC(Oc2nc3ccccc3s2)C1
i,Cn1nc(CNC(=O)Cc2ccc(F)cc2)cc1-c1ccccn1
i,N#Cc1cccc(C(=O)NCC2(O)CCCC2)c1
i,Cn1c(=O)c2c(ncn2CC(=O)c2ccc([N+](=O)[O-])cc2)n(C)c1=O
i,COCCN(Cc1ccoc1)C(=O)C1(c2cccs2)CCCC1
i,CCCCN1C(SCC(=O)NCc2ccco2)=NS(=O)(=O)c2ccccc21
i,COc1ccc(OC)c(NC(=O)c2nc(S(C)(=O)=O)ncc2Cl)c1
i,CCOc1cccc2sc(-n3nc(C)cc3NC(=O)c3ccc4ncsc4c3)nc12
i,COc1ccc(S(=O)(=O)NCC(c2cccnc2)N2CCN(C)CC2)cc1OC (stereo not given)
i,Cc1nnsc1C(=O)Nc1ccc(-n2nnn(CC(=O)NCc3ccco3)c2=O)cc1
i,CCNC(=O)N1CCN(Cc2nnnn2-c2ccc(OCC)cc2)CC1
i,O=C(Cn1cnc2c(oc3ccccc32)c1=O)Nc1ccc(Br)cc1F
i,COc1cc(OC)cc(C(=O)NCC#CCN2CCCCCC2)c1
i,O=c1[nH]c(SCc2cccc(Br)c2)nc2c1CN(Cc1ccccc1)CC2
i,COc1ccccc1NC(=O)N1CCC(CNC(=O)C2(c3ccc(F)cc3)CC2)CC1
i,O=C(Nc1nc(C(=O)N2CCN(c3ncccn3)CC2)co1)C1CC1
i,Cc1nc(C)c(CNS(=O)(=O)c2cccs2)s1
i,CCOc1ccc(-n2cc(-c3nc(-c4cccnc4)no3)c3ccccc3c2=O)cc1
i,O=C(c1cccs1)N1CCCC(c2nnc(-c3ccc4c(c3)OCO4)o2)C1 (stereo not given)
i,COc1ccc(CCNC(=O)CC2CCCCN2S(=O)(=O)c2ccc(C)cc2)cc1 (stereo not given)
i,COc1ccccc1-c1c(C)oc2c3c(ccc2c1=O)OCN(Cc1ccco1)C3
i,COC(=O)Cn1c(=O)c2c(nc3n(CCc4ccccc4)c(C)c(C)n23)n(C)c1=O

# Reprinted at random: seven compounds from above.
GIRK2 act,canonical_smiles
i,O=S(=O)(NCC(O)c1ccoc1)c1ccc(Cl)s1 (stereo not given)
i,CC(Oc1ccccc1)C(=O)N1CCC(Cn2ccnc2-c2ccccc2)CC1 (stereo not given)
i,O=C(Cn1nc2c(Oc3ccccc3)nccn2c1=O)N1CCN(c2ccccc2F)CC1
i,CC1=C(C(=O)OC(C)C)C(c2cc(C(C)(C)C)c(O)c(C(C)(C)C)c2)NC(=O)N1 (stereo not given)
i,COC(=O)Cn1c(=O)c2c(nc3n(CCc4ccccc4)c(C)c(C)n23)n(C)c1=O
i,COc1cccc(-c2noc(CN3C(=O)COc4ccccc43)n2)c1
i,COCCn1c(=O)c2c(nc3n(-c4cc(C)cc(C)c4)c(-c4ccccc4)cn23)n(C)c1=O

# Later entries.
GIRK2 act,canonical_smiles
i,CCn1cc(-c2ccccc2)c(C(=O)O)c1C
i,COC(=O)c1cn[nH]c1S(=O)(=O)Nc1ccc(OC)c(Cl)c1
i,O=C(Cn1cnc2c(sc3ccccc32)c1=O)N1CCN(c2ccc(F)cc2)CC1
i,CC(C)(C)OCC(O)CN(CCc1ccccc1)Cc1ccccc1 (stereo not given)
i,COCCn1c(C(=O)NCCC2=CCCCC2)cc2c(=O)n(C)c(=O)n(C)c21
i,COc1ccccc1-c1c(C)oc2c3c(ccc2c1=O)OCN(CCN1CCOCC1)C3
i,CCOc1ccccc1NC(=O)NCCNc1cc(Nc2ccccn2)ncn1
i,COC(=O)Cn1c(=O)c2c(nc3n(-c4cc(C)ccc4C)c(C)c(C)n23)n(C)c1=O
i,O=C(CCCn1cccc1)NCc1ccco1

# Entries shown so far containing a COOH group:
GIRK2 act,canonical_smiles
i,Cc1cccc2c(C(=O)O)cc(-c3ccncc3)nc12
i,CCn1cc(-c2ccccc2)c(C(=O)O)c1C
